Screening data (PubChem)
VDR inhibitor: blocks the human vitamin D receptor | P11473 | VDR-SRC2-3 peptide fluorescence polarization, 2 h | Potency, µM, for the others: max response, negative = inhibition, actives largely listed as inhibitors | hit rate 0.93% among 400,000; active = well fitted inhibition curve with a large enough effect; inconclusive = small, poorly fitted or top-dose-only effect, or another doubt; inactive = no such curve, though single readings can be large or run the other way; note: series mostly up to about 120 µM
Target sequence (P11473 whole entry, looked up): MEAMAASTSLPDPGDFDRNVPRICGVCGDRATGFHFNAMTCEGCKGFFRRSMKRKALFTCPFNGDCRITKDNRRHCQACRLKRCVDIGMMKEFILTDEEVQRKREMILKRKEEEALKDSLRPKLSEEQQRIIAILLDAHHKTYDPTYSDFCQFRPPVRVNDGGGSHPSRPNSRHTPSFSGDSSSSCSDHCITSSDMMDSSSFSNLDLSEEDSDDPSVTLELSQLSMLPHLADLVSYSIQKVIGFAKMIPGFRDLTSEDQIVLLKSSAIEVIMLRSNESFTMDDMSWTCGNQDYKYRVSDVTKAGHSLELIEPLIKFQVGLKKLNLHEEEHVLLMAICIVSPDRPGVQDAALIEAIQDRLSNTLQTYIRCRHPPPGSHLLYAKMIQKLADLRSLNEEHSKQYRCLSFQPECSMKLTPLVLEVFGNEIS
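The screen uses fluorescence polarization to detect compounds that interfere with recruitment of the SRC2-3 coactivator peptide to VDR; plates are read after 2 h at room temperature.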
An asterisk follows results filed as active; ? = inconclusive; [ ] = dose if it differs, or a comment. % is set by controls: 0 for no effect and ±100 for the full control effect; potency is the fitted concentration of half-maximal effect. Some of the compounds tested; rates above refer to the full screens.

VDR inhibitor,structure
8%,CC(=O)n1cc([C@@H]2C=C(C(=O)N3CCN(Cc4ccc5c(c4)OCO5)CC3)O[C@H](OCc3ccc(CO)cc3)C2)c2ccccc21
-4%,NS(=O)(=O)c1cc(C(=O)OCC(=O)NC2CCCCCCC2)ccc1Cl
-19%,Cc1ccc(-c2nc3ccccc3n2C)o1
-11%,Cc1nc(SCC(=O)NCCN2C(=O)CSC2=O)nc(C)c1C
3%,CCCCCCP(=O)(O)c1ccccc1
7%,CCN(CC)S(=O)(=O)c1cccc(NC(=O)COC(=O)CCc2nc3ccccc3s2)c1
-7%,COc1ccc(C(=O)c2ccccc2)c(OCC(=O)N(C)C)c1
-6%,CCN1C(=O)C(=O)N(CC(=O)Nc2ccccc2OC(F)F)C1=O
8%,COC(=O)c1c(NC(=O)Cc2ccccc2)sc(C)c1C
-2%,Cc1ccc(C)c(S(=O)(=O)n2nc(C)c(S(=O)(=O)N3CCC(C)CC3)c2C)c1
?,Cc1cc(Cl)ccc1OCCCC(=O)NCCN1C(=O)S/C(=C\c2cccnc2)C1=O
-3%,Cc1ccccc1OCCC(=O)OCC(=O)NC(=O)c1ccccc1
-6%,NC(=O)C1CCN(C(=O)C(=O)c2cn(CC(=O)N3CCCCCC3)c3ccccc23)CC1
-1%,CC(C)OC(=O)c1cccnc1SCc1cc(=O)n2ccccc2n1
11%,Cc1ccc(CSCCC(=O)N2CCN(c3cc(C)ccc3C)CC2)cc1
?,Cc1cc(C)c(C(=O)COc2cccnc2[N+](=O)[O-])cc1C
-12%,O=C(CSc1ccccc1)Nc1cccc(S(=O)(=O)N2CCCCC2)c1
4%,CCOC(=O)N1CCN(CCc2ccccc2)CC1
-19%,Cc1ccccc1C(=O)N1CCN(C(c2ccccc2)c2ccccc2)CC1
-2%,CCCCN1CC(COCc2ccccc2)Oc2cccc(Oc3ccccc3)c2S1(=O)=O (stereo unspecified)
8%,COc1cc(/C=C/C(=O)OCC(=O)Nc2sc3c(c2C#N)CCC(C)C3)ccc1OCC#N (stereo unspecified)
-14%,O=C(NCCC1=CCCCC1)C1CCN(S(=O)(=O)c2ccccc2C(F)(F)F)CC1
79µM*,COc1cc(/C=C2\C(=N)N3N=C(S(C)(=O)=O)SC3=NC2=O)ccc1OC(=O)c1ccco1
7%,CCc1cc(C(=O)N2CCCC(C(=O)c3ccc(OC)c(F)c3)C2)n(C)n1 (stereo unspecified)
13%,Cc1noc(C)c1CSc1nnc(-c2cccnc2)n1C1CCCCC1C (stereo unspecified)
?,CC1CC=CC2C1C(=O)N(Cc1ccccc1)C2c1ccoc1 (stereo unspecified)
-7%,COc1ccc(OC)c(S(=O)(=O)N2Cc3ccccc3CC2C(=O)O)c1 (stereo unspecified)
1%,Cc1cc(NC(=O)C2CCN(S(=O)(=O)c3cnc[nH]3)CC2)ccc1Br
5%,O=C(CC(C(=O)O)c1ccc(Cl)cc1Cl)c1ccc(Cl)cc1 (stereo unspecified)
-1%,CC(C)(C)NC(=O)NC(=O)CN1c2cccc3cccc(c23)S1(=O)=O
-12%,COc1ccc(C(=O)N/C(=C\c2ccc([N+](=O)[O-])cc2)C(=O)NC(CCSC)C(=O)O)cc1 (stereo unspecified)
-14%,OCCN(Cc1ccccc1)Cc1ccccc1Cl
-7%,O=C(c1ccc(CNS(=O)(=O)c2cccc(C(F)(F)F)c2)cc1)N1CCOCC1
-1%,O=C(CCC1CCCN(C(=O)c2ccc3[nH]ccc3c2)C1)N1CCN(c2ccccn2)CC1 (stereo unspecified)
8%,O=C(NNS(=O)(=O)c1ccc(F)cc1)c1ccc(O)cc1
-7%,CCOC(=O)c1[nH]c2c(c1Cc1ccccc1C)C(=O)CC(c1cc(OC)ccc1OC)C2 (stereo unspecified)
-4%,CCN(CC)c1ccc(NC(=O)C2CCCN(S(=O)(=O)c3ccc4c(c3)oc(=O)n4C)C2)c(C)c1 (stereo unspecified)
1%,CCNc1nc(N)nc(Oc2ccc(OCC)nn2)n1
16%,COc1ccc(NC(=O)C2CCN(C(=O)c3ccccc3)CC2)cc1OC
4%,N#Cc1c(Nc2ccc(F)cc2)sc(C(=O)c2ccc(F)cc2)c1N
10%,Cc1cc2cc(CNC(=O)c3cccc([N+](=O)[O-])c3)ccc2n1C
11%,CC(C)(C)c1ccc(-c2nnc(SCC(=O)NC3CCS(=O)(=O)C3)n2N)cc1 (stereo unspecified)
-5%,CCCOC(=O)C1=C(C)NC2=C(C(=O)CCC2)C1c1cccs1 (stereo unspecified)
-12%,Cc1nc2ncnn2c(C)c1CCC(=O)NCCc1ccccc1
-4%,CC(C)(C)c1ccc(OCC(O)CN2CCCC2)cc1 (stereo unspecified)
10%,O=C(CCS(=O)(=O)c1cc(Br)cc2c1N(C(=O)C1CC1)CC2)NCC1CCCO1 (stereo unspecified)
1%,O=C(CCN1C(=O)C2CCCCC2C1=O)NNC(=O)c1cccc(Cl)c1 (stereo unspecified)
2%,CC(=O)Nc1cccc(NC(=O)CSc2nc(=O)n(CCN3CCOCC3)c3c2CCC3)c1
0%,NC(=O)c1cc(-c2ccccc2)nc(Oc2ccccc2)n1
14%,Cc1ccc(-n2ncc3c(NCc4ccccc4)ncnc32)cc1
6%,Cc1ccc(CNC(=O)CCNC(=O)c2ccc(Br)o2)cc1
9%,O=C(CSc1nc(-c2ccc(F)cc2)cs1)N1CCOCC1
-1%,O=C(Nc1ccc(N2CCN(C(=O)c3ccccc3)CC2)cc1)c1cc2ccccc2o1
-18%,CCOC(=O)c1cccc(NC(=O)CCS(=O)(=O)c2ccc3c(c2)CCN3C(=O)CC)c1
6%,O=c1[nH]c(=O)n(C2CC(O)C(CO)O2)cc1Br (stereo unspecified)
-3%,O=C(Nc1ccccc1)C1CC(=O)N(C2CCCCC2)C1 (stereo unspecified)
-1%,CS(=O)(=O)N1CCC2(CC1)CN(c1ncccn1)C2
10%,Cc1cc(C(C)(C)C)oc1C(=O)N(CC(=O)NC1CCCC1)Cc1ccc(Cl)cc1
-14%,CCn1c(Cc2ccccc2)nnc1SCC(=O)c1c(N)n(C2CC2)c(=O)[nH]c1=O
-15%,Cc1ccc(/C=N/NC(=O)COc2ccc(Cl)c(C)c2)o1

Some of these compounds in order of length of the SMILES, ascending.
VDR inhibitor,structure
-3%,O=C(Nc1ccccc1)C1CC(=O)N(C2CCCCC2)C1 (stereo unspecified)
0%,NC(=O)c1cc(-c2ccccc2)nc(Oc2ccccc2)n1
14%,Cc1ccc(-n2ncc3c(NCc4ccccc4)ncnc32)cc1

The results go on:
VDR inhibitor,structure
-1%,O=C(c1cccc(F)c1)N1CCN(C(=O)C(c2ccccc2)c2ccccc2)CC1
-4%,CC1CCC(NC(=O)C2c3ccccc3C(=O)N2Cc2cccs2)CC1 (stereo unspecified)
-12%,Cc1cccc(-c2cccc(NC(=O)C3CCCN(C(=O)c4cccnc4)C3)c2)c1 (stereo unspecified)
-5%,CC(C)NC(=O)COc1coc(CN2CCN(C(=O)c3ccco3)CC2)cc1=O
-10%,CCN(CC)CCNC(=O)c1ccc(NC(=O)c2ccc(S(=O)(=O)N3CCCC3)cc2)cc1
2%,O=C(Nc1ccc(Cl)cc1)NC1CCCCC1
10%,Cc1ccc(S(=O)(=O)N2CCC[C@H]2C(=O)Nc2ccc(F)cc2C)cc1
-10%,CCC(C)N(C(=O)c1csnn1)C(C(=O)NC1CCCC1)c1c(F)cccc1Cl (stereo unspecified)
?,CCC(=O)NC(=S)NNC(=O)c1ccc(NC(=O)c2ccccc2)cc1
-10%,COC(=O)c1ccc(CN2C(=O)NC(c3ccccc3)(c3ccccc3)C2=O)o1
21%,N=C1C(c2nc(-c3ccc(Br)cc3)cs2)=C(O)CN1NC(=O)c1ccc([N+](=O)[O-])cc1
-20%,CCCc1nc2nc(C)c(NS(=O)(=O)c3ccc(C4CCCCC4)cc3)c(=O)n2[nH]1
-16%,CC1(C)C[C@H]2C3=CCC4[C@@]5(C)CC[C@H](O)C(C)(C)C5CC[C@@]4(C)[C@]3(C)[C@@H](O)[C@@H](O)[C@@]2(CO)[C@@H](O)[C@@H]1O (stereo partly specified)
-5%,Cc1cc(C)c(S(=O)(=O)N2CCOC2CNC(=O)C(=O)NCCc2c[nH]c3ccccc23)c(C)c1 (stereo unspecified)
44%[activator],CC1(C)C([N+](=O)[O-])C(c2ccc(Cl)cc2)NC(c2ccc(Cl)cc2)C1[N+](=O)[O-] (stereo unspecified)
2%,COC(=O)c1ccc(CN2CCN(CC=C(C)C)C(CCO)C2)cc1 (stereo unspecified)
-2%,CCc1cc(-c2n[nH]c(=S)n2C(C)c2ccccc2)cs1 (stereo unspecified)
1%,COCCCNC(=O)CC1C[C@H](C(=O)N2CCOCC2)[C@@]2(CCC3CCCC3)c3[nH]c4ccc(OC)cc4c3CCN2C1=O (stereo partly specified)
14%,CN1CCN(c2cc(C(F)(F)F)nc(-c3ccccn3)n2)CC1
-10%,OC1C2CN3CCN(C2)CC1(Cc1ccccc1)C3 (stereo unspecified)
-3%,COC(=O)c1cc2c(s1)-c1ccccc1CC2
-19%,NC(=NC1CCCCC1)NS(=O)(=O)c1ccccc1
-4%,CSCCC(NC(=O)c1ccc([N+](=O)[O-])cc1Cl)C(=O)OCC(=O)NCCCc1ccccc1 (stereo unspecified)
-6%,CC(NCC1COc2ccccc2O1)C1COc2ccccc2O1 (stereo unspecified)
-8%,CSCCC(NC(=O)c1ccc([N+](=O)[O-])cc1Cl)C(=O)OCC(=O)NCC(F)(F)F (stereo unspecified)
-7%,CCCCNC(=O)c1ccc(-n2c(=S)[nH]c3ccccc3c2=O)cc1
-6%,CN(CC(=O)Nc1ccc(Cl)c(C(F)(F)F)c1)Cc1cc(=O)n2ccsc2n1
6%,COc1ccc(Nc2nc(S(=O)(=O)c3ccc(C)cc3)c(Cl)s2)cc1
1%,COc1ccc(C)cc1NC(=O)c1cc2c(=O)n3cccc(C)c3nc2s1
5%,CSCC[C@H](N)C(=O)N[C@@H](CCCN=C(N)N)C(=O)N[C@@H](CC(C)C)C(=O)N[C@@H](Cc1ccccc1)C(=O)N[C@H](C(=O)O)C(C)C
12%,CC(C)(C)c1ccc(OCCSc2nc(-c3cccs3)nc3cc(=O)[nH]n23)cc1
-10%,COc1ccc(Cl)cc1NC(=S)NC1CCCC1
7%,CN(C)c1ccc(CNC(=O)c2ccc3nc(CCc4ccccc4)oc3c2)cc1
-6%,N#CC(C#N)C(c1ccsc1)c1c(-c2ccccc2)[nH][nH]c1=O (stereo unspecified)
-10%,Clc1ccc(-c2noc3ncnc(NC4CCCCC4)c23)cc1
0%,c1ccc2c(c1)CCCN2Cc1nnnn1C1CCCC1
13%,COc1ccc(OC)c(NC(=O)[C@H]2CC=CC[C@H]2C(=O)O)c1
-17%,Cc1nn(Cc2ccccc2)c(Cl)c1C(=O)NCCc1ccc(Cl)cc1
11%,Cc1c(C(=O)NCc2cccc(Cl)c2)sc2nc3n(c(=O)c12)CCC3
6%,O=C(CO/N=C/c1ccccc1OC(F)F)N1CCc2ccccc21
25%,Cc1nccn1CC(=O)N/N=C/c1c[nH]c2ccccc12
4%,COc1cc(C(=O)NCC(C)C)cc(OC)c1OC
10%,CCOCCn1c(CN2CCN(C(=O)c3ccco3)CC2)nc2c1c(=O)n(C)c(=O)n2C
79µM*,CCOc1ccc(C2NC(=O)C(C#N)=C(S)N2c2cccc(C)c2)cc1OC (stereo unspecified)
-18%,COc1ccc(N2CCN(C(CNC(=O)c3cccc(Cl)c3)c3cccnc3)CC2)cc1 (stereo unspecified)
-25%,C=CCOc1ccc(C2OC34CCCCC3C(C#N)(C#N)C2(C#N)C(=N)O4)cc1 (stereo unspecified)
-23%,CCCCC(CC)CNC(=O)CN(C)S(=O)(=O)c1cccc2nsnc12 (stereo unspecified)
7%,O=C1CSC(c2ccccc2F)N1c1ccccc1F (stereo unspecified)
-3%,O=C(CN1C(=O)c2ccccc2S1(=O)=O)N1CCN(Cc2ccc3c(c2)OCO3)CC1
11%,COCCCN1C(=O)C(=O)/C(=C(/O)c2ccc(S(=O)(=O)N3CCCCC3)cc2)C1c1ccc(OC)cc1 (stereo unspecified)
2%,CCOC(=O)c1c(C)[nH]c(C(=O)OCC(=O)N(CC)c2c(N)n(Cc3ccccc3)c(=O)[nH]c2=O)c1C
?,COc1cccc(Nc2n[nH]c(=S)s2)c1
-6%,Cc1noc(C)c1COc1ccc(CC(=O)NCc2ccccc2)cc1
8%,CCn1c(SCC(=O)NC(C)(C)C)nc(O)cc1=O
-6%,CCOC(=O)C(NCCc1ccccc1F)(NC(C)=O)C(F)(F)F (stereo unspecified)

Reformatted bar-delimited: 14 of the compounds above
Molecule | VDR inhibitor
COc1cc(C(=O)NCC(C)C)cc(OC)c1OC | 4%
CCOCCn1c(CN2CCN(C(=O)c3ccco3)CC2)nc2c1c(=O)n(C)c(=O)n2C | 10%
CCOc1ccc(C2NC(=O)C(C#N)=C(S)N2c2cccc(C)c2)cc1OC (stereo unspecified) | 79µM*
COc1ccc(N2CCN(C(CNC(=O)c3cccc(Cl)c3)c3cccnc3)CC2)cc1 (stereo unspecified) | -18%
C=CCOc1ccc(C2OC34CCCCC3C(C#N)(C#N)C2(C#N)C(=N)O4)cc1 (stereo unspecified) | -25%
CCCCC(CC)CNC(=O)CN(C)S(=O)(=O)c1cccc2nsnc12 (stereo unspecified) | -23%
O=C1CSC(c2ccccc2F)N1c1ccccc1F (stereo unspecified) | 7%
O=C(CN1C(=O)c2ccccc2S1(=O)=O)N1CCN(Cc2ccc3c(c2)OCO3)CC1 | -3%
COCCCN1C(=O)C(=O)/C(=C(/O)c2ccc(S(=O)(=O)N3CCCCC3)cc2)C1c1ccc(OC)cc1 (stereo unspecified) | 11%
CCOC(=O)c1c(C)[nH]c(C(=O)OCC(=O)N(CC)c2c(N)n(Cc3ccccc3)c(=O)[nH]c2=O)c1C | 2%
COc1cccc(Nc2n[nH]c(=S)s2)c1 | ?
Cc1noc(C)c1COc1ccc(CC(=O)NCc2ccccc2)cc1 | -6%
CCn1c(SCC(=O)NC(C)(C)C)nc(O)cc1=O | 8%
CCOC(=O)C(NCCc1ccccc1F)(NC(C)=O)C(F)(F)F (stereo unspecified) | -6%
